# Screening data from PubChem BioAssay.
# PINK1 modulator: A Quantitative High throughput Screen to Identify Chemical Modulators of PINK1 Expression. PINK1 immunofluorescence, high-content cytometry, 24 h. Potency, µM (doses to about 76.6 µM), inactives show at the highest dose activation (PINK1 increase), hits mostly activators. actives 0.2% (n = 410,000). AID 624263, 2012; active = well fitted activation curve with a large enough effect; inconclusive = small, poorly fitted or top-dose-only effect; inactive = flat fitted curve, though single readings scatter; cell line not stated here;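 also: potency is read from the fitted curve at half-maximal effect; % of control where 0% means no effect; nearly all actives have a fitted effect of over 65% in size; a mitochondrial uncoupler was the plate control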
#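 Stable cell line, 250 cells/well, 12 h attachment; compounds pinned at 5 concentrations, 24 h; CCCP control. Fixed with nuclear dye, primary antibodies 12 h at 10 degrees C, secondary plus cell stain; laser-scanning cytometer read.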
# Six1-Eya2 blk: qHTS Assay for Inhibitors of the Six1/Eya2 Interaction. AlphaScreen GST-Six1/His-Eya2 binding, biochemical; hits give low values; control for the full effect not named in the record. activity change, % (test concentration not listed). actives 0.56% (n = 360,000); in the data active = activity change below about -65%; inconclusive = about -30% to -65%; inactive = above about -30%; also: % is scaled to controls: 0 for no effect and ±100 for the full control effect; compound concentration not given in the record
#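 AlphaScreen luminescence read after one hour at 37 °C in darkness. Pin-transferred compounds met GST-Six1 and His-Eya2 protein (5X stock 250 nM/500 nM) plus glutathione donor and Ni-chelate acceptor beads (5X, 50 ug/mL).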
# TRPML1 inh: qHTS for Inhibitors of the Human Mucolipin Transient Receptor Potential 1 (TRPML1). Mucolipin-1 (Homo sapiens), Q9GZU1. TRPML1-inducible cells, Ca2+ dye fluorescence, FDSS; hits give low values; inhibition of EC80 agonist-evoked calcium signal. activity change, negative = inhibition, % (test concentration not listed). actives 0.02% (n = 390,000); in the data active means activity change below about -50%; inconclusive means about -30% to -50%; inactive means above about -30%;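 also: stimulus is agonist 54-4 at its EC80 concentration; % is scaled to controls: 0 for no effect and ±100 for the full control effect; compound concentration not given in the record; the text of the record puts the active cut at -80%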
# Target sequence (Q9GZU1 whole entry, looked up): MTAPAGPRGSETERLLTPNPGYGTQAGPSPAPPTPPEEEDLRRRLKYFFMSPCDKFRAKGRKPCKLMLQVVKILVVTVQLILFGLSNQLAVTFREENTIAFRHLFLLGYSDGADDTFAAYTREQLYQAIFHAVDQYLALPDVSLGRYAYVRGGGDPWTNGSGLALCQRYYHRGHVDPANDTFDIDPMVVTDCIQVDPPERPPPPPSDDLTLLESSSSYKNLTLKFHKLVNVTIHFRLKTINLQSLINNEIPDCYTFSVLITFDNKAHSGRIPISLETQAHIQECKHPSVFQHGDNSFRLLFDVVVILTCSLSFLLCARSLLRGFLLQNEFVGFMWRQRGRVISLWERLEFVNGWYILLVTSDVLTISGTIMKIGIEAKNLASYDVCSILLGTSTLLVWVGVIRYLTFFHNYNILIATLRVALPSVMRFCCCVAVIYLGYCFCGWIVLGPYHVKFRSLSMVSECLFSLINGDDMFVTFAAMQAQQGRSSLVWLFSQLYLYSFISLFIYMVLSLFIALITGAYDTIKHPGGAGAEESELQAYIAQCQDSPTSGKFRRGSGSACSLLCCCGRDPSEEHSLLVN
#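 TRPML1-DL cells, Tet-induced overnight (~16 h, 37 °C) at 1,500 cells/well, were loaded with Ca8 no-wash dye plus quencher for 45-90 min at room temperature. Compounds were pinned during FDSS kinetic reading; agonist 54-4 at EC80 (4 uM final) then added.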
# TRPML1 agonist: qHTS for Agonists of the Human Mucolipin Transient Receptor Potential 1 (TRPML1); TRPML1-expressing cells, Ca2+ dye fluorescence, FDSS; host cell line not named in the record; reference of the full effect not given here; activation, % (concentration not given with the values); actives 0.12% (n = 410,000); AID 624414, 2012; in the data active = activation above about 50%; inconclusive = about 30% to 50%; inactive = below about 30%; also: 0% is about no effect; the text of the record puts the active cut at 80%
#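 Kinetic FDSS Ca2+ read in Tet-induced TRPML1-DL cells (ABD Ca8 dye plus quencher, 45-90 min RT loading): baseline, then compound, then 110 s agonist window; EC80 agonist 54-4 at 4uM final added afterwards for a 110 s antagonist window.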
# D2 agonist: Beta-Arrestin HTS for Positive Allosteric Modulators of the Human D2 Dopamine Receptor: Agonists | D(2) dopamine receptor (Homo sapiens), P14416 | DiscoveRx PathHunter D2 beta-arrestin, luminescence, 90 min; 100% = 57 uM dopamine signal | activation, % (concentration not given with the values) | actives 0.084% (n = 360,000); in the data active = activation above about 40%; inconclusive = about 15% to 40%; inactive = below about 15%; also: compound concentration not given in the record; the text of the record calls up to 30% inactive
# Target sequence (P14416 whole entry, looked up): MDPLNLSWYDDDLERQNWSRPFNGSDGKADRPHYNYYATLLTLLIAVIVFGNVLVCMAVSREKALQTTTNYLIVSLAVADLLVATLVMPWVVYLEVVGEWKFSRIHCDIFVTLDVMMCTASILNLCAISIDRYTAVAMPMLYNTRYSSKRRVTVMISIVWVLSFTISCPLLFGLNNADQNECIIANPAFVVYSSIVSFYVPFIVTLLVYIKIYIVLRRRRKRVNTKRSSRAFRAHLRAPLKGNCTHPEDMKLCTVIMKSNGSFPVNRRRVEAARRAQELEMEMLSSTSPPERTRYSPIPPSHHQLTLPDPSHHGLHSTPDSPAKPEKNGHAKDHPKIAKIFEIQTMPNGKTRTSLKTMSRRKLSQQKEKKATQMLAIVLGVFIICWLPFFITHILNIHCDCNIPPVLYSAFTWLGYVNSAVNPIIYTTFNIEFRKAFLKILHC
#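 DiscoveRx PathHunter D2 beta-arrestin cells (2,100/well) attached overnight, then compound-stimulated 90 min at 37 C in HBSS/10 mM HEPES/0.1% Tween-20 buffer; beta-galactosidase complementation read by luminescence after 1 h at ambient temperature. Dopamine 57 uM final (EC100) as control.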
# D2 PAM: Beta-Arrestin HTS for Positive Allosteric Modulators of the Human D2 Dopamine Receptor: Potentiators. D(2) dopamine receptor (Homo sapiens), P14416. potentiation, % (test concentration not listed). DiscoveRx D2 beta-arrestin cells, luminescence, 90 min; 100% = 57 uM dopamine signal. actives 0.23% (n = 360,000); active = potentiation of 50% or more; inconclusive = 30% to 50%; inactive = 30% or less;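 also: compound concentration not given in the record; tested on top of an EC20 dose of dopamine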
#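 PathHunter beta-arrestin assay in DiscoveRx D2 cells. Compounds were added with an EC20 of dopamine (50 nM final) for 90 min at 37 deg C. Luminescence was read 1 h after detection reagent, with 57 uM dopamine as the EC100 control.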
# Starred values were filed as active, the others as inactive; ? = inconclusive; / = no result given; [ ] = remark or other dose. Hits appear at their usual frequency; overall some 1% were active at least once.
SMILES,PINK1 modulator,Six1-Eya2 blk,TRPML1 inh,TRPML1 agonist,D2 agonist,D2 PAM
CN(c1ccccc1)S(=O)(=O)c1cccc(C(=O)N2CCCCCC2)c1,-0.2%,3,-19,1.5,-2.2,-25
CCC1CCCCN1C(=S)NC1CCCCC1 (stereo unspecified),1.1%,4,-13,-0.5,-1.7,0
Cc1cc(C)n(-c2ccc(N3CCOCC3)nn2)n1,-1.5%,-3,-7,-0.5,1.5,-8
Cc1cc(C)c2c(c1)NC(=O)C2(O)CC(=O)c1cccs1 (stereo unspecified),-0.1%,2,-14,0.1,-1.5,-12
Cc1ccsc1/C=N/Nc1nc2ccccc2s1,3.2%,-1,17,0.6,-3.5,1
COc1ccc(CCNC(=O)c2ccc3nc(Cc4ccccc4)oc3c2)cc1OC,-0.1%,/,-19,2.4,/,/
CCOC(=O)C1CCN(C(=O)CNC(=O)c2nn(-c3ccc(OC)c(OC)c3)c(=O)c3ccccc23)CC1,4.6%,3,5,0.0,9.6,15
CCCCC(=O)Nc1ccc(N2CCN(C(=O)c3ccco3)CC2)cc1,-0.7%,9,-1,0.4,-2.4,-7
Cc1cc(NC(=O)c2nn(C)c(C)c2[N+](=O)[O-])no1,0.8%[38.3 µM],7,2,-0.6,-0.5,-7
COc1cccc(CNC(=O)[C@@H]2CCCN2C(=O)[C@@H]2CCCN2C(=O)c2ccccc2)c1,0.3%,8,/,-0.6,/,/
CCCOc1ccc(/C(O)=C2/C(=O)C(=O)N(CCCOC)C2c2ccncc2)cc1 (stereo unspecified),2.7%,3,22,0.0,-3.6,-21
COc1ccc(CCNC(=O)c2ccc(N(C)S(=O)(=O)c3ccc(C)cc3)cc2)cc1OC,2.2%,-15,18,2.5,1.6,5
CCn1c(CNC(=O)Cc2ccc(OC)cc2)nnc1SCC(=O)c1ccc(Br)cc1,0.1%[38.3 µM],3,18,0.3,-3.7,-9
CCOc1cc2[nH]c(=O)n(Cc3cccc(OC)c3)c(=O)c2cc1OCC,8.3%,-1,-1,-1.0,-0.8,-2
O=C1OCCN1C(=O)[C@H]1[C@H](c2ccc(Cl)cc2)C(c2ccc(F)cc2)=NN1c1ccccc1,2.6%,24,-8,0.6,-0.1,-2
CCOC(=O)c1ccc(N/C=C/C(=O)c2ccco2)cc1,0.9%[38.3 µM],-5,3,-0.5,0.2,-4
Cc1nc(SCC(=O)Nc2ccc3c(c2)OCCO3)nc(C)c1C,2.7%,0,-9,-0.8,-0.5,-9
O=c1oc(-c2ccc(Cl)cc2[N+](=O)[O-])nc2ccccc12,3.6%,-3,-3,-0.2,5.0,1
O=C(Nc1ccc(Cl)cc1)Nc1ccc(-c2cnco2)cc1,4.8%,1,-5,0.1,-2.7,-10
CCc1nnc(NS(=O)(=O)c2ccc(NC(=O)c3cc(Cl)ccc3Cl)cc2)s1,3.7%,2,-5,0.2,-0.7,-1
COC(=O)C1=C2c3[nH]c4ccccc4c3CCN2C(=O)CC1,1.4%,5,/,/,5.5,4
Cc1cccc(C(=O)N2CCC(=O)N(C(COCc3cccc(Cl)c3)Cc3ccccc3)CC2)c1 (stereo unspecified),3.4%,-5,61,3.5,2.6,-7
COc1ccc([C@H]2CC(=O)C=C(c3cccc(F)c3OC)C2)cc1,2.5%,0,-5,-1.1,-0.7,-8
CCOC(=O)c1ccc(NC(=O)CCNC(=O)c2ccc([N+](=O)[O-])cc2)cc1,6.0%,-4,20,-1.7,4.3,15
COc1cc(OC)c(OC)cc1CNc1cc(C)ccc1OC,?,?,10,1.0,-0.7,1
Oc1ccccc1N=N/C(=N/Nc1ccccc1O)c1ccccc1,-0.7%,-2,-10,1.1,-4.1,-10
COc1cc(/C=C/C(=O)O)cc(S(=O)(=O)N2CCc3ccccc3C2)c1OC,0.3%,-4,5,0.4,0.2,-4
CCOC(=O)N1CCC(=NNc2ncc(C(F)(F)F)cc2Cl)CC1,-0.8%,-10,14,-0.3,-6.3,0
O=C(Nc1ncc2c(n1)-c1ccccc1CC2)c1cccs1,-2.6%,-13,5,0.7,0.7,-2
O=S1(=O)CC(N2CCN(CCO)CC2)CN1Cc1ccc(F)cc1 (stereo unspecified),1.3%,1,/,-0.5,-4.6,-7
CC1CCCCC12NC(=O)N(CC(=O)Nc1ccc(N3CCCCC3)cc1)C2=O (stereo unspecified),1.7%,0,5,-0.3,-5.7,-28
O=C(COC(=O)C1CCC1)Nc1ccc(OC(F)F)cc1,-0.6%,8,-5,-0.5,-1.8,-1
O=C(COc1ccc(S(=O)(=O)NC2CCCC2)cc1)NCC1CCCO1 (stereo unspecified),1.0%,14,3,0.4,3.3,-4
Cc1ccccc1-n1nnnc1SC(C)C(=O)Nc1ccc(N2CCN(C)CC2)cc1 (stereo unspecified),-0.8%,-14,-1,0.0,-1.3,-14
O=C(Nc1ccc2c(c1)OCCO2)C1CCN(S(=O)(=O)c2cccc3nsnc23)CC1,15%,4,2,0.5,0.2,-1
Cc1ccc(C(=O)Nc2ccccc2Cl)cc1,-0.1%,29,3,-0.5,-3.5,-44
Cc1c(C(=O)O)cnc2c([N+](=O)[O-])cnn12,-1.0%,-4,36,0.3,-5.5,-5
NC(=O)CC(NC(=O)Cc1ccc(Br)cc1)c1ccc(NC2CC3CCC2C3)c([N+](=O)[O-])c1 (stereo unspecified),0.1%,-22,14,1.1,-3.6,-10
CCc1ccc(NC(=O)c2c(Cl)nc(C)c(Cl)c2C)cc1,12%,5,18,-0.2,-4.9,-11
Cc1ccc(C=NNC(=O)c2cc(-c3cccnc3)nc3ccccc23)o1,8.2%,-18,13,-1.4,-3.2,-3
CCCCNC(=O)C1(C)CCN1C(=O)c1cncc(Br)c1 (stereo unspecified),0.1%,4,/,-0.7,-3.6,-3
O=C(O)CSc1nc2ccccc2c(=O)[nH]1,/,3,2,0.1,0.7,-23
Cc1ccc(S(=O)(=O)Oc2ccc(C)cc2/C=N/N=C2\NC(=O)C(C)S2)cc1 (stereo unspecified),-0.8%,-4,-3,0.7,-2.1,-21
O=C(CCC1N=C2c3ccccc3N=C(SCC(=O)Nc3ccc(F)cc3)N2C1=O)NCc1cccs1 (stereo unspecified),3.2%,/,15,1.5,/,/
CCC1Nc2ncnc(N3CCOCC3)c2N(Cc2ccc(Cl)cc2)C1=O (stereo unspecified),1.1%,-3,6,0.3,-3.0,-7

# Four entries from above in a different format:
> CCc1ccc(NC(=O)c2c(Cl)nc(C)c(Cl)c2C)cc1
- PINK1 modulator = 12%
- Six1-Eya2 blk = 5
- TRPML1 inh = 18
- TRPML1 agonist = -0.2
- D2 agonist = -4.9
- D2 PAM = -11

> Cc1ccc(C=NNC(=O)c2cc(-c3cccnc3)nc3ccccc23)o1
- PINK1 modulator = 8.2%
- Six1-Eya2 blk = -18
- TRPML1 inh = 13
- TRPML1 agonist = -1.4
- D2 agonist = -3.2
- D2 PAM = -3

> CCCCNC(=O)C1(C)CCN1C(=O)c1cncc(Br)c1 (stereo unspecified)
- PINK1 modulator = 0.1%
- Six1-Eya2 blk = 4
- TRPML1 inh = /
- TRPML1 agonist = -0.7
- D2 agonist = -3.6
- D2 PAM = -3

> O=C(O)CSc1nc2ccccc2c(=O)[nH]1
- PINK1 modulator = /
- Six1-Eya2 blk = 3
- TRPML1 inh = 2
- TRPML1 agonist = 0.1
- D2 agonist = 0.7
- D2 PAM = -23

# Continuation.
SMILES,PINK1 modulator,Six1-Eya2 blk,TRPML1 inh,TRPML1 agonist,D2 agonist,D2 PAM
COc1cc(-n2c(=O)c3ccccc3n(CC(=O)c3ccc(Br)cc3)c2=O)cc(OC)c1OC,7.1%,-2,-4,0.0,-2.5,-6
CCn1cc(C(=O)NCCCOC(C)C)c(=O)c2cc(S(=O)(=O)N3CCc4ccccc4C3)ccc21,1.9%,/,-22,1.9,/,/
COc1cc(C(=O)NCCN2CCN(C(=O)c3cc(OC)c(OC)c(OC)c3)CC2)cc(OC)c1OC,0.3%,-30,0,-0.3,-7.0,-9
Cn1c(N)c(C(=O)c2cc(-c3ccncc3)nc3ccccc23)c(=O)n(C)c1=O,-0.4%,4,9,-0.5,-6.4,-11
CCOC(=O)CCC(=O)Nc1ccc(S(=O)(=O)N2CCCC2)cc1,-2.8%[38.3 µM],4,6,0.2,0.2,-3
CCOc1ccc(S(=O)(=O)N(CC(=O)NCC2CCCO2)c2ccc(F)cc2)cc1 (stereo unspecified),2.3%,-1,11,0.1,-5.4,0
Nc1ccc(C(O)(C(F)(F)F)C(F)(F)F)cc1,10%[38.3 µM],4,-8,-0.8,-1.8,7
CCOC(=O)N1CCN(S(=O)(=O)c2ccc3c(c2)OCC(=O)N3)CC1,3.3%,5,17,3.8,1.6,-7
CCOc1ccc(S(=O)(=O)NCc2cccnc2)cc1C(C)C,-1.0%,0,0,2.1,-3.3,-13
CN(C)C1=NC[C@H](Cc2ccccc2)N1CCCC1CCCCC1,2.8%,6,-9,1.4,1.5,-7
Cn1c(=O)c2c(-c3ccccc3)n(-c3cccc(C#N)c3)cc2n(C)c1=O,-1.9%,/,38,1.2,/,/
CCOc1ccc(OCC)c(S(=O)(=O)NCCCN2CCOCC2)c1,-1.9%,0,28,-0.4,-3.3,-4
O=S1(=O)NC(C2CC2c2ccccc2)CCO1 (stereo unspecified),-0.7%,2,5,-1.0,-0.3,-31
O=C(C(=O)N1CCCc2ccccc21)c1cn(CC(=O)N2CCOCC2)c2ccccc12,0.3%,4,3,0.2,-1.6,-1
Cc1cccc(NC(=O)Cn2c(=O)n(Cc3ccccc3)c(=O)c3c(C)c(C)sc32)c1,6.4%,-4,61,1.7,-1.7,-1
COc1ccccc1C(=O)N1c2ccccc2C(C)(c2ccc(Cl)cc2)CC1(C)C (stereo unspecified),1.4%,/,18,3.1,/,/
Cc1oc(C)c2c(=O)ccc3c(c12)OC(N)=C(C#N)C3c1ccccc1Cl (stereo unspecified),?,3,11,4.9,2.0,9
Cn1c(=O)n(C)c2cc(/C=N/NC(=S)NCc3ccccc3)ccc21,4.4%,?,-10,0.5,-0.3,2
C=CCNC(=O)c1ccccc1NS(=O)(=O)c1ccccc1,7.2%,1,19,-0.7,-2.7,-7
COc1ccc(CCC(=O)Nc2ccc3c(c2)OCO3)cc1OC,-1.3%,6,-13,-0.7,-1.1,2
CC1(C)C(c2cccs2)=[N+]([O-])C2(CCCCC/C2=N\O)N1O (stereo unspecified),1.9%,17,6,-0.8,5.3,?
COc1ccccc1N1CCN(Cc2nnnn2CCc2ccccc2)CC1,-1.0%,4,4,-0.4,0.6,-31
COc1ccccc1C(=O)NCC(c1ccco1)N1CCc2ccccc21 (stereo unspecified),9.7%,-24,68,2.8,0.0,-2
